# HSD17B inh: blocks hydroxysteroid 17-beta dehydrogenase activity. 7.6% of 75,000 active. AID 893. Potency, µM (doses to about 57.1 µM), without a hit: top-dose activity change, negative = inhibition, hits mostly inhibitors. Q99714. recombinant HSD17B10, NADH fluorescence kinetic; many of its hits are not listed in these tables; active = well fitted inhibition curve with a large enough effect; inconclusive = small, poorly fitted or top-dose-only effect; inactive = no such curve, though single readings can be large or run the other way;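 note: the protocol describes HADH2 (HSD17B10) and not the HSD17B4 of the title; nearly all actives have a fitted effect of over 70% in size; most hits overshoot -100% by far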
#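 Enzyme plus compound, 15 min room temperature; substrate mix added (NAD+ 1 mM, beta-hydroxybutyryl-CoA 90 uM final); plates read kinetically for NADH fluorescence. HADH2 was His-tagged, E. coli-derived, 20 nM.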
# An asterisk follows results filed as active; ? = inconclusive; & = joins results of further samples; [ ] = dose if it differs, or a comment. % is set by controls: 0 for no effect and ±100 for the full control effect; potency is the fitted concentration of half-maximal effect. Some of the compounds tested; the hit share may differ from the screen's.
structure	HSD17B inh
COc1cccc(C2CC(=O)NC3=C2C(=O)CCC3)c1 (stereo not drawn)	-7%
COc1ccc(S(=O)(=O)NCC(c2cccnc2)N2CCN(c3ccccc3OC)CC2)cc1C (stereo not drawn)	-1%
O=C1C2=C(SCCS2)C(=O)N1c1ccccc1	5%
CCS(=O)(=O)Nc1ccc(-c2nnc(SCC(=O)OC)o2)cc1	13%
Cc1onc(-c2ccccc2Cl)c1C(=O)NCCn1ccc2ccccc21	3%
C=CCOc1cccc(C2C(C(=O)c3ccco3)=C(O)C(=O)N2CCN2CCOCC2)c1 (stereo not drawn)	-8%
O=C(c1cccc(S(=O)(=O)N2CCCCC2)c1)N1CCCCC1	7%
O=C(c1ccco1)N1CCN(c2cc(=O)n(C3CCCCC3)c(=O)[nH]2)CC1	2%
CN1CCN(C(=O)c2ccc(-c3nn(C)c(=O)c4ccccc34)cc2)CC1	5%
COc1cccc(NC(=O)C2CC(=O)N(C)C(=Nc3cccc(F)c3)S2)c1 (stereo not drawn)	-6%
Cc1nc2cnc(N3CCNCC3)nc2n(CCc2ccccc2)c1=O	25µM*
CCOC(=O)c1ccc(NCn2c(=O)oc3ccccc32)cc1	19%
Cn1c(SCc2ccccc2F)nc2cccnc21	-6%
O=C(CN1CCN(S(=O)(=O)c2ccc(Cl)cc2)CC1)Nc1ccc(F)cc1F	-3%
O=C1c2ccccc2C(=O)N1n1c(=O)[nH]c2ccccc2c1=O	5%
O=C(c1ccccc1)N(Cc1ccc2c(c1)OCO2)Cc1nc2ccccc2c(=O)[nH]1	-1%
COc1ccccc1Oc1nc2c(c(=O)n(Cc3ccccc3F)c(=O)n2C)n1C	-1%
CCOc1ccc(C2N(c3ccc(F)cc3)C(=O)C3CCCN32)cc1OC (stereo not drawn)	6%
Cc1cnc(CNc2ccnc(-c3cccc(NS(C)(=O)=O)c3)n2)cn1	15%
CCC(C)(C)n1nnnc1C(c1ccncc1)N1CCN(c2cccc(OC)c2)CC1 (stereo not drawn)	5%
C=CCSc1nnc(CSc2nc3sc4c(c3c(=O)[nH]2)CCCC4)n1-c1ccccc1	25µM*
Cn1c(N2CCCCC2)nc2c1c(=O)[nH]c(=O)n2C	-1%
C[C@@H]1C[C@H](OC(=O)[C@@H](O)c2ccccc2)CC(C)(C)N1C	2%[25.6 µM]
CCCc1nc2ccccc2c(=O)n1/N=C/c1ccccc1O	13µM*
CCOC(=O)c1c(NC(=O)CSc2nnc(-c3ccccc3C)n2C)sc(C(C)=O)c1C	?
CC1=C(C(=O)O)N2C(=O)C(NC(=O)C(N)C3=CCC=CC3)C2SC1 (stereo not drawn)	-7%
CCc1ccc(C(=O)CSc2n[nH]c(C)n2)cc1	-9%
CC1CC[C@@]2(OC1)OC1CC3C4CC[C@H]5CC(O)CC[C@@]5(C)C4CC[C@]3(C)C1C2C (stereo partly drawn)	4%
CCOC(=O)c1sc2nc(C)cc(C)c2c1NC(=O)c1ccco1	3%
Cc1ccc(N2C(=O)CSC23C(=O)Nc2ccccc23)cc1 (stereo not drawn)	-1%
CC(C(N)=O)N1C(=O)C2C3C=CC(C3)C2C1=O (stereo not drawn)	1%
c1cc(-c2sc(-c3ccncc3)c(-c3ccncc3)c2-c2ccncc2)ccn1	6%[11.4 µM]
COc1ccc(NC(=O)c2cccs2)cc1O	1%
C=CCN1CCN(C(c2ccc(OC)c(OC)c2)c2nnnn2C(C)(C)C)CC1 (stereo not drawn)	3%
Oc1c(C(c2ccccn2)N2CCOCC2)ccc2cccnc12 (stereo not drawn)	4%
COc1cccc(-c2ccc3ncnc(N4CCNCC4)c3c2)c1	?
COC(=O)N1CCC2(CC1)CN(C(c1ccccc1)c1ccccc1)C2	-1%
O=c1cc(NCCO)c2ccccc2o1	-1%
C=CCn1c(SCC(=O)NCc2ccccc2)nnc1-c1ccccc1O	0%
Cn1c(=O)[nH]c2ncn(C)c2c1=O	7%&-4%
O=C(c1cnccn1)N1CCC2(CC1)CN(Cc1cc(C(F)(F)F)cc(C(F)(F)F)c1)C2	-8%
O=c1c2ccccc2nc(-c2ccccc2)n1CCCN1CCOCC1	3%
COC(=O)c1ccc(NC(=O)CS(=O)(=O)Cc2ccccc2)cc1	-4%
CN1c2ccccc2N(C)C1c1ccc2c(c1)OCO2	4%
N[C@H](CCC(=O)N[C@H](CSN=O)C(=O)NCC(=O)O)C(=O)O	?
C=CCn1c(SCC(=O)NCC2CCCO2)nc2scc(-c3ccco3)c2c1=O (stereo not drawn)	-3%
CCCC(=O)c1ccc(N2CCN(C(=O)OCC)CC2)c(F)c1	-2%
CCN1CCN(Cc2nc3c(c(=O)[nH]c(=O)n3C)n2Cc2ccccc2Cl)CC1	4%
Cn1c(=O)c2c(nc(CN3CCc4ccccc4C3)n2Cc2ccc(F)cc2)n(C)c1=O	?
CC1CCCC(C)N1C(=O)CSc1nnc(CSc2ncccn2)n1C (stereo not drawn)	9%
CCCCn1c(SCC(=O)Nc2cc(C)on2)nc2c1c(=O)n(C)c(=O)n2C	-6%
CCOc1ccc(C(=O)NCc2ccncc2)cc1	4%
CCCCN(CCCC)C(=O)CSc1nnc(-c2cc(OC)c(OC)c(OC)c2)o1	-1%
CCOC(=O)c1nnn(-c2nonc2N)c1CNC(C)C	3%
CCOC(=O)N1CCC(N2CCN(S(=O)(=O)c3ccc(NC(C)=O)cc3)CC2)CC1	3%
O=C(Oc1cccc2cccnc12)c1ccc(Br)o1	4%
COCCn1c(=O)cnc2cnc(Oc3ccccc3)nc21	-12%
COc1ccc(OC)c(S(=O)(=O)N(C)CC(=O)Nc2ccccc2OC)c1	6%
CCOC(=O)CCN1C(=O)[C@H]2[C@H]3[C@H](O)[C@H](O)C/C(=N/OC/C=C(\C)CCC=C(C)C)[C@H]3CC[C@@H]2C1=O	-1%[11.4 µM]
CCCn1c(C)cc(C(=O)COc2ncnc3sccc23)c1C	3%

# 5 entries from above, arranged by length of the SMILES, falling.
structure	HSD17B inh
N[C@H](CCC(=O)N[C@H](CSN=O)C(=O)NCC(=O)O)C(=O)O	?
C=CCn1c(SCC(=O)NCc2ccccc2)nnc1-c1ccccc1O	0%
CC1CCCC(C)N1C(=O)CSc1nnc(CSc2ncccn2)n1C (stereo not drawn)	9%
CC(C(N)=O)N1C(=O)C2C3C=CC(C3)C2C1=O (stereo not drawn)	1%
O=c1cc(NCCO)c2ccccc2o1	-1%

# Already shown: 6 of the compounds above.
structure	HSD17B inh
CC(C(N)=O)N1C(=O)C2C3C=CC(C3)C2C1=O (stereo not drawn)	1%
c1cc(-c2sc(-c3ccncc3)c(-c3ccncc3)c2-c2ccncc2)ccn1	6%[11.4 µM]
COc1ccc(NC(=O)c2cccs2)cc1O	1%
C=CCN1CCN(C(c2ccc(OC)c(OC)c2)c2nnnn2C(C)(C)C)CC1 (stereo not drawn)	3%
Oc1c(C(c2ccccn2)N2CCOCC2)ccc2cccnc12 (stereo not drawn)	4%
COc1cccc(-c2ccc3ncnc(N4CCNCC4)c3c2)c1	?

# The results go on:
structure	HSD17B inh
CC1CCC(C(C)(C)O)CC2=C1CCC2C (stereo not drawn)	2%
CCOC(=O)N1CCN(S(=O)(=O)c2ccc(F)c(C(=O)Nc3cccc(C)c3C)c2)CC1	-2%
O=C(CSc1nnc(-c2ccccc2)o1)N1CCOCC1	11%
Cc1ccc(S(=O)(=O)N[C@H]2COC(=O)CC=C[C@@H](C)[C@H]3C=C[C@H](O)[C@@H](COC(=O)CC=C[C@H]2C)O3)cc1	5%&2%[11.4 µM]
CCn1nc(C(=O)N2CCN(Cc3ccc4c(c3)OCO4)CC2)c2ccccc2c1=O	10%
Cn1c(=O)[nH]c(=O)c2c1nc(SCC(O)CO)n2Cc1ccccc1Cl (stereo not drawn)	1%
S=c1[nH]nc(-c2ccc(Br)cc2)n1Cc1ccco1	-20%
CCOc1ccccc1Oc1ccc(C(F)(F)F)cn1	16%
COc1ccc(OC)c(NC(=O)c2cc(S(=O)(=O)NCc3ccco3)ccc2F)c1	106%[activator]
O=C(O)CCc1n[nH]c(=S)[nH]c1=O	5%
CCOC(=O)c1c(N)nn(C(=O)C(C)(C)C)c1-c1ccccc1	7%
Cc1ccc(CNC(=O)c2nnn(-c3cccc(C)c3)c2N)cc1	0%
CN(C)S(=O)(=O)c1ccc(C(=O)OCC(=O)NC(=O)NCc2ccccc2)cc1	3%
O=C(Nc1ccccn1)NC1CCS(=O)(=O)C1 (stereo not drawn)	8%
O=C(Nc1c2c(nn1-c1ccc(Cl)cc1)CS(=O)(=O)C2)c1ccc2c(c1)OCO2	-12%
C(=N\c1nccs1)/Nc1nccs1	2%
Cc1cc(C(=O)N[C@H](c2ccccc2)[C@@]2(C)C[C@@H]2[C@@H](C)C(=O)Nc2ccc3ccccc3c2)no1	24%
Cc1n[nH]c(C)c1SCC(=O)Nc1ccc(F)cc1	0%
Nc1nc(Nc2ccccc2)nc2ccccc12	1%
CCN(C(=O)Cn1c(=O)oc2ccccc21)c1cccc(C(F)(F)F)c1	-1%
C=CCn1c(C)c(C(C)=O)c(N2CCOCC2)nc1=S	79%[activator]
O=c1c(-c2ccccc2)coc2cc(O)cc(O)c12	2µM*
COc1cc(C)nc(NCc2ccccc2)n1	-7%
Cc1ccc(-c2nc(CS(=O)CC(=O)N3CCN(c4ncccn4)CC3)c(C)o2)cc1 (stereo not drawn)	-25%
CCOC(=O)NC1C=CS(=O)(=O)C1 (stereo not drawn)	4%
CS(=O)(=O)N1CCC2(CC1)CN(C(=O)Nc1cccc(C#N)c1)C2	-24%
CC(C)c1ccc(N2C(=O)[C@@H]3Cc4ccccc4CN3C2=O)cc1	12%
CCOC(=O)c1c(Nc2ccccc2N)cc(C)nc1C	9%
O=C(c1ccc2snnc2c1)N1CCN(c2ccccn2)CC1	-6%
CCn1nc(C(=O)Nc2ccc(S(=O)(=O)Nc3nccs3)cc2)c2ccccc2c1=O	-17%

# Reprinted from the part before: 2 entries, then new ones.
structure	HSD17B inh
O=C(c1ccc2snnc2c1)N1CCN(c2ccccn2)CC1	-6%
CCn1nc(C(=O)Nc2ccc(S(=O)(=O)Nc3nccs3)cc2)c2ccccc2c1=O	-17%
Cn1c(=O)c2c(nc(Oc3ccc4c(c3)OCO4)n2Cc2ccc(Cl)cc2)n(C)c1=O	7%
CN(C)C(=O)c1ccc(-c2cncnc2NCCc2cnc[nH]2)cc1	-3%
Cc1ccc2oc(=O)c3cnn(CC(=O)NCCC(C)C)c3c2c1	4%
O=C(NCc1ccccc1)[C@H]1C[C@@H]1[C@H](NP(=O)(c1ccccc1)c1ccccc1)c1ccccc1	7%
CCN(CC)C(=O)CN1C(=O)C2CC=C(Cl)CC2C1=O (stereo not drawn)	-4%
O=C(Nc1ccc(Cl)cc1)N1CCC(c2nc(-c3ccc(F)cc3)no2)CC1	10%
CCc1cc2c(NCc3ccco3)ncnc2s1	6%
CCOC(=O)c1cc(NC(=O)c2cc(C)on2)cc(C(=O)OCC)c1	8%
CC(=O)N1CCC[C@@]2(CCN(Cc3nccs3)C2)C1	8%
COc1ccc(C(=O)CSc2nnc(-c3ccccc3)o2)cc1	-6%
CC(C)(C)n1nc2c(c1NC(=O)c1ccco1)CS(=O)C2 (stereo not drawn)	-2%
CCN(CC)c1ccc(C=N/C(C#N)=C(\N)C#N)cc1	-13%
CCSc1nnc(-c2cccc(S(=O)(=O)N(CC)CC)c2)n1Cc1ccccc1	2%
COc1ccc(-c2noc(CN(C)S(=O)(=O)c3ccc(Cl)cc3)n2)cc1OC	?
Nc1ccccc1C(=O)Nc1cccc(C(=O)O)c1	?
CCCC(=O)c1cc(-c2nc3ccccc3n2C)n(C)c1	-22%
O=c1c(-c2ccccc2)nc2cncnc2n1-c1ccccc1	-8%
COc1ccccc1N1CCN(C(c2ccc(C)cc2)c2nnnn2C(C)C)CC1 (stereo not drawn)	1%
Cc1cc(C)n(-c2nc3ccccc3c(=O)n2OC2CCCCC2)n1	6%
Nn1c(SCC(=O)NC(=O)NC2CCCC2)nnc1-c1ccccc1F	4%
CC(=O)OCC1OC(C#Cc2ccccc2)C=CC1OC(C)=O (stereo not drawn)	-4%&-8%[11.4 µM]
COc1ccc(C)cc1NC(=O)CN1CCN(S(=O)(=O)c2ccc(C(C)C)cc2)CC1	6%
O=C(CC(C(=O)O)C1CCCO1)NCc1ccccc1 (stereo not drawn)	1%
Cc1cc(C)n(-c2cc(C)c(C)cc2Br)n1	4%
O=C(NCCc1ccccn1)C1CCCN(S(=O)(=O)Cc2ccccc2)C1 (stereo not drawn)	2%
CCOC(=O)Cc1nnc(NC(=O)CSc2ccccc2)s1	?
c1ccc2c(c1)[nH]c1nc(SCCN3CCOCC3)nnc12	-9%
O=C1C2ON(c3ccccc3)C(c3ccccc3F)C2C(=O)N1c1ccccc1 (stereo not drawn)	4%
CC(=O)Nc1ccc(-c2nc3c(C)cccc3[nH]2)cc1	32µM*
O=c1cc(N2CCN(c3ccccc3)CC2)[nH]c(=O)n1Cc1ccc(F)cc1	3%
CN1[C@@H](CC(=O)c2ccccc2)CCC[C@@H]1C[C@@H](O)c1ccccc1	3%[25.6 µM]
CCOC(=O)Cc1csc(NC(=O)CSc2nnc(-c3ccc(OC)cc3)n2C)n1	2%
